Granule exo inh: blocks lytic granule exocytosis. TALL-104 LAMP-1 surface exposure, flow cytometry; cells stimulated with thapsigargin and PMA. inhibition, % at 10 µM. 360,000 tested, 0.66% active. AID 651702;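 active means inhibition above about 55%, limit read from the data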
ABHD5-PLIN5 inh: inhibitors of human ABHD5-perilipin-5 interaction. AID 602281. Q00G26+Q8WTS1. inhibition, % at 4 µM. Split G. princeps luciferase complementation, luminescence, 4 h. 360,000 tested, 0.78% active;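 active means inhibition above the mean inhibition across every tested compound plus 3 SD, cut at about 22% in these data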;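 further: 0% = DMSO only wells and the 100% control is not disclosed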
N-glyco inh: N-linked glycosylation inhibition; D54 ERlucT glycosylation luciferase reporter, 24 h; percent of 100 nM tunicamycin response; reporter increase, % at 12.5 µM; 360,000 tested, 0.23% active; AID 588692;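 active means mean luciferase reporter signal, scaled so untreated is 0 and the glycosylation-blocking control 100, at or above a set limit in every replicate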;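 further: luciferase carries N-glycosylation sites so blocking glycosylation raises the light; 0% = median of neutral control wells and 100% = median of 100 nM tunicamycin wells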
ABCB6 inh MLPCN: human ABCB6 transporter inhibition; Q9NP58; K562-ABCB6 porphyrin accumulation, flow cytometry, 1 h; stronger effect = lower value; fluorescence ratio to DMSO, % at 10 µM; 360,000 tested, 0.19% active; AID 602162;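 active means fluorescence ratio to DMSO below 75%, the collection mean minus 3 SD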;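 further: signal is porphyrin accumulated inside mitochondria; 100% equals median channel fluorescence of DMSO control wells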
aDG glyco up: increases alpha dystroglycan glycosylation; Pro5-aDG cells, alpha-DG glycosylation AlphaScreen (IIH6); 0% Pro5, 100% B10-LARGE cell signal; activation, % at 10 µM; 360,000 tested, 0.22% active; AID 624168;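 active means activation of at least 8% versus controls, or a plate z-score of at least 8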;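 further: Pro5 are CHO cells carrying HIG-tagged alpha-DG that lacks glycosylation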
H9c2 protect: modulators protecting cardiomyocytes from myocardial damage; H9c2 cardiomyocytes, H2O2 injury protection, ATPLite, 2 h; protection from H2O2 cell death, % at 20 µM; 360,000 tested, 0.63% active;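 active means compounds giving at least 50% protection of heart cells from peroxide-induced death in the single-dose screen, raw or plate-pattern-corrected value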;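 further: 0% = DMSO wells with peroxide and 100% = DMSO wells without peroxide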
Starred values were filed as active, the others as inactive; . = no result given; & = joins results of further samples. Not all compounds are listed (hit frequency here may not be typical).

Abbreviations: A = Granule exo inh; B = ABHD5-PLIN5 inh; C = N-glyco inh; D = ABCB6 inh MLPCN; E = aDG glyco up; F = H9c2 protect
CC1=CC2OC3CC4OC(=O)C=CC=CC(=O)OCCC(C)C(O)C(=O)OCC2(CC1)C4(C)C31CO1 (centres undefined)
  A: -4 | B: -1 | C: -19 | D: 85 | E: -0.4 | F: 57*

O=C(CCN1CCCCC1)NCC(=O)Nc1ccc(Br)cc1C(=O)c1ccccc1
  A: 0 | B: -5 | C: -5 | D: 97 | E: 0.0 | F: 3

CC[C@H]1C2C[C@H]3[C@@H]4N(C)c5ccccc5C45C[C@H](C2[C@H]5O)N3[C@@H]1O (some centres undefined)
  A: -2 | B: -7 | C: 1 | D: 100 | E: 0.0 | F: 0

CCCN1CCC[C@@H](c2cccc(O)c2)C1
  A: -4 | B: 3 | C: -1 | D: 101 | E: -0.1 | F: 10

c1cncc(CNCCc2c[nH]c3ccccc23)c1
  A: -1 | B: 4 | C: 1 | D: 89 | E: 0.6 | F: 2

O=c1c2ccccc2[nH]c(=S)n1-c1cccc(Cl)c1
  A: -1 | B: -2 | C: 4 | D: 93 | E: 0.1 | F: -7

COc1cc2nc(N3CCN(C(=O)[C@@H]4CCCO4)CC3)nc(N)c2cc1OC
  A: 1 | B: 4 | C: 4 | D: 100 | E: 0.0 | F: 0

c1ccc2sc(N3CCNCC3)nc2c1
  A: 1 | B: -2 | C: 2 | D: 96 | E: -0.1 | F: 0

CC(=C1C(=O)c2ccccc2C1=O)N1CCN(CCN=Cc2c(O)n(C)c(=O)n(C)c2=O)CC1
  A: 3 | B: -10 | C: 1 | D: 93 | E: -0.1 | F: 10

O=C(NC(=S)N1C[C@H]2C[C@H](C1)c1cccc(=O)n1C2)c1ccc(F)cc1
  A: -1 | B: 0 | C: 3 | D: 98 | E: 0.2 | F: 0

O=C(OCCN1CCOCC1)C1(c2ccccc2)CCCC1
  A: 0 | B: -6 | C: 0 | D: 95 | E: -0.3 | F: 5

c1cc2c(c(NC3=NCCCS3)c1)CCCC2
  A: -4 | B: 6 | C: 1 | D: 98 | E: 0.3 | F: 5

CCOC(=O)[C@]12Cc3ccccc3[C@H]1N(C1CCCCC1)C(=O)c1cc(OC)ccc12
  A: 57* | B: 40* | C: . | D: 91 | E: -0.3 | F: .

CCC(=C(c1ccccc1)c1ccc(OCCN(C)C)cc1)c1ccccc1
  A: 2 | B: -4 | C: 1 | D: 94 | E: -0.2 | F: 16

C=C(COC(=O)CCC(=O)O)CC1CC(O)[C@]2(C)OC3CC4OC5C[C@]6(C)O[C@]7(C)CCC8OC9C[C@]%10(C)OC%11C(C)=CC(=O)OC%11CC%10OC9C[C@@H](C)C8OC7CC6O[C@]5(C)C/C=C\C4OC3CC2O1 (some centres undefined)
  A: -3 | B: 2 | C: -7 | D: 98 | E: 0.2 | F: 1

COc1cc2nc(N3CCN(C(=O)C4CCCO4)CC3)nc(N)c2cc1OC (centres undefined)
  A: -10&-6 | B: 2&-7 | C: 2&3 | D: 98&108 | E: 0.2&0.7 | F: -9&-8

CC12CCC(O)CC1CCC1C2CCC2(C)C(C3=CC(=O)OC3)C(O)CC12O (centres undefined)
  A: 5 | B: -4 | C: -10 | D: 102 | E: 0.0 | F: -6

CC1=CC(=O)OC2CC3OC4C[C@@H](C)C5OC6CC7O[C@]8(C)C/C=C\C9OC%10CC%11OC(CC(C)CO)CC(O)[C@]%11(C)OC%10CC9OC8C[C@]7(C)O[C@]6(C)CCC5OC4C[C@]3(C)OC12 (some centres undefined)
  A: -3 | B: 4 | C: -9 | D: 103 | E: 0.0 | F: -4

O=[N+]([O-])c1cnc2ccc3ccccc3c2c1
  A: -2 | B: -4 | C: 4 | D: 118 | E: -0.1 | F: 0

COCc1cc(OC(=O)N(C)C)nc(-c2ccc(C)c(Cl)c2)n1
  A: -8 | B: 9 | C: 0 | D: 98 | E: 0.1 | F: 0

2 compounds from above, limited to aDG glyco up.
molecule,aDG glyco up
O=c1c2ccccc2[nH]c(=S)n1-c1cccc(Cl)c1,0.1
COc1cc2nc(N3CCN(C(=O)[C@@H]4CCCO4)CC3)nc(N)c2cc1OC,0.0

3 compounds picked at random from those above, as already listed:
Abbreviations: A = Granule exo inh; B = ABHD5-PLIN5 inh; C = N-glyco inh; D = ABCB6 inh MLPCN; E = aDG glyco up; F = H9c2 protect
O=C(OCCN1CCOCC1)C1(c2ccccc2)CCCC1
  A: 0 | B: -6 | C: 0 | D: 95 | E: -0.3 | F: 5

C=C(COC(=O)CCC(=O)O)CC1CC(O)[C@]2(C)OC3CC4OC5C[C@]6(C)O[C@]7(C)CCC8OC9C[C@]%10(C)OC%11C(C)=CC(=O)OC%11CC%10OC9C[C@@H](C)C8OC7CC6O[C@]5(C)C/C=C\C4OC3CC2O1 (some centres undefined)
  A: -3 | B: 2 | C: -7 | D: 98 | E: 0.2 | F: 1

c1cncc(CNCCc2c[nH]c3ccccc23)c1
  A: -1 | B: 4 | C: 1 | D: 89 | E: 0.6 | F: 2
